# UUG fidelity: modulators of start codon recognition fidelity in yeast | S. cerevisiae UUG-firefly luciferase reporter, luminescence/redox ratio | activity score, % at 18.7 µM | 0.13% of 350,000 active | AID 602363;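 active = replicate mean at a twofold rise or more, about +100% in these data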;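 note: firefly luciferase made from a UUG start codon reports start codon fidelity; reporter light over untreated wells divided by growth signal over untreated wells; some hits fall short of that in this replicate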
# The depositor's hits bear a star.
SMILES,UUG fidelity
COc1ccc(CN(C)C[C@@H]2Oc3ccc(NC(=O)Nc4ccc(OC)cc4)cc3CC(=O)N([C@H](C)CO)C[C@@H]2C)cc1,15.0
COc1cccc(C(=O)Nc2ccc3c(c2)C(=O)N(C)[C@H]2CC[C@H](CC(=O)N[C@H](C)c4ccccc4)O[C@H]2CO3)c1,-6.5
CC(C)CC#Cc1ccc([C@H]2[C@H]3CN(S(=O)(=O)c4ccc(F)cc4)CCCCN3[C@H]2CO)cc1,3.8
C[C@@H]1CN([C@H](C)CO)C(=O)c2cc(NC(=O)Nc3cccc4ccccc34)ccc2O[C@H]1CN(C)S(=O)(=O)c1ccc(Cl)cc1,8.7
O=C(C[C@H]1CC[C@H]2[C@@H](COC[C@H](O)CN2Cc2ccccc2F)O1)N[C@H]1CCN(Cc2ccccc2)C1,3.2
CO[C@H]1CN(C)C(=O)c2cc(NC(=O)C3CC3)ccc2OC[C@H](C)N(Cc2ccc(F)cc2)C[C@@H]1C,-2.6
C[C@@H]1CN([C@H](C)CO)C(=O)c2cccc(NC(=O)c3nc4ccccc4s3)c2O[C@@H]1CN(C)C,-8.1
O=C(C[C@H]1CC[C@H]2[C@@H](COC[C@@H](O)CN2C(=O)c2cccnc2)O1)NCc1ccc(-c2ccccc2)cc1,-7.8
CCC(=O)N1CCCCN2[C@H](CO)[C@@H](c3ccc(-c4cccc(C(=O)N(C)C)c4)cc3)[C@@H]2C1,-4.0
CC(=O)N1CCCCN2[C@@H](CO)[C@H](c3ccc(-c4ccncc4)cc3)[C@@H]2C1,-5.5
C[C@@H]1CN([C@H](C)CO)C(=O)Cc2cc(NC(=O)Nc3ccc(F)cc3)ccc2O[C@H]1CN(C)S(C)(=O)=O,-1.6
C[C@@H]1CN([C@@H](C)CO)C(=O)c2cccc(NS(=O)(=O)c3cccs3)c2O[C@H]1CN(C)Cc1ccncc1,-22.4
C[C@@H]1CN([C@H](C)CO)C(=O)c2cccc(NC(=O)Nc3cccc4ccccc34)c2O[C@@H]1CN(C)Cc1ccc(Oc2ccccc2)cc1,-0.7
CCCNC(=O)Nc1ccc2c(c1)OC[C@@H](C)N(C(=O)c1ccccc1F)C[C@H](C)[C@H](OC)CN(C)C2=O,14.1
O=C(Nc1cc(F)ccc1F)N1CCCCN2[C@@H](CO)[C@@H](c3ccc(-c4ccccc4)cc3)[C@@H]2C1,-1.4
CCCNC(=O)N1[C@@H]2CN(C(=O)Nc3cccc(Cl)c3)c3ccccc3[C@@H]2[C@@H]1CO,5.4
COc1ccccc1NC(=O)N1C[C@H]2[C@@H](c3ccccc31)[C@@H](CO)N2Cc1ccc2c(c1)OCO2,-1.3
CN(C)C(=O)c1ccc(-c2ccc([C@@H]3[C@H]4CN(C(=O)C5CC5)CCCCN4[C@H]3CO)cc2)cc1,-1.7
C[C@@H]1CN([C@@H](C)CO)C(=O)Cc2cc(NS(=O)(=O)c3ccc(Cl)cc3)ccc2O[C@H]1CN(C)CC1CC1,19.5
C[C@H](CO)N1C[C@H](C)[C@@H](CN(C)Cc2ccc(C(=O)O)cc2)Oc2ccc(NC(=O)Nc3ccccc3)cc2C1=O,-0.6
COCC(=O)Nc1ccc2c(c1)C(=O)N(C)C[C@@H](OC)[C@@H](C)CN(Cc1cccnc1)[C@@H](C)CO2,6.3
Cc1noc(C)c1NC(=O)N(C)C[C@@H]1Oc2c(NC(=O)c3nc4ccccc4s3)cccc2C(=O)N([C@H](C)CO)C[C@H]1C,-4.9
C[C@H]1CN([C@@H](C)CO)C(=O)c2cccc(NC(=O)c3ccncc3)c2O[C@@H]1CN(C)Cc1ccc(C(=O)O)cc1,-5.5
O=C(c1cccnc1)N1C[C@@H]2[C@H](c3ccccc31)[C@@H](CO)N2Cc1ccc2c(c1)OCO2,35.9
COc1ccc(S(=O)(=O)N(C)C[C@@H]2Oc3c(NC(=O)c4ccncc4)cccc3C(=O)N([C@@H](C)CO)C[C@@H]2C)cc1,-18.1
C[C@H](CO)N1C[C@H](C)[C@@H](CN(C)C)Oc2c(NC(=O)Nc3ccc(C(F)(F)F)cc3)cccc2C1=O,-1.3
O=C(C1CCCCC1)N1[C@H](CO)[C@H]2c3ccccc3NC[C@H]21,10.4
C[C@@H]1CN([C@@H](C)CO)C(=O)c2cc(NS(=O)(=O)c3cn(C)cn3)ccc2O[C@@H]1CN(C)Cc1ccc2c(c1)OCO2,-10.3
CCC(=O)Nc1ccc2c(c1)OC[C@@H](C)N(C(=O)c1cccnc1)C[C@H](C)[C@@H](OC)CN(C)C2=O,27.7
COc1ccc(C(=O)N2C[C@@H]3[C@H](c4ccccc42)[C@H](CO)N3C(=O)c2cccc(F)c2)cc1,-12.1
COc1ccc(-c2ccc([C@@H]3[C@H]4CN(C(=O)c5ccc(F)cc5)CCCCN4[C@H]3CO)cc2)cc1,3.9
CCCC#Cc1ccc([C@@H]2[C@@H](CO)N3CCCCN(Cc4cccnc4)C[C@@H]23)cc1,-10.8
O=C(c1cccnc1)N1CC[C@H]2[C@H](CO)Nc3ccc(-c4ccc(F)cc4)cc3[C@H]21,-5.1
CCC(=O)N1[C@H](CO)[C@@H](c2ccc(-c3cccc(F)c3)cc2)[C@@H]1CNC(C)=O,6.5
C[C@@H]1CN([C@@H](C)CO)C(=O)Cc2cc(NS(=O)(=O)c3ccccc3)ccc2O[C@@H]1CN(C)C(=O)Nc1ccc(F)cc1,-4.8
C[C@H]1CN([C@@H](C)CO)C(=O)c2cc(NC(=O)Cc3cn(C)c4ccccc34)ccc2O[C@@H]1CN(C)Cc1ccc(Cl)c(Cl)c1,10.7
Cc1ccc(S(=O)(=O)Nc2cccc3c2O[C@@H](CN(C)CC2CCCCC2)[C@H](C)CN([C@H](C)CO)C3=O)cc1,22.4
C[C@H](CO)N1C[C@H](C)[C@H](CN(C)C(=O)NC2CCCCC2)Oc2ccc(NS(=O)(=O)c3ccccc3)cc2CC1=O,5.3
C[C@@H]1CN([C@@H](C)CO)C(=O)c2cc(NS(=O)(=O)c3ccc(Cl)cc3)ccc2O[C@@H]1CN(C)Cc1ccc(Oc2ccccc2)cc1,15.8
COc1ccc(-c2ccc3c(c2)[C@@H]2[C@@H](CCN2C(=O)c2ccc4c(c2)OCO4)[C@H](CO)N3)cc1,-3.3
C[C@@H]1CN([C@H](C)CO)C(=O)c2cccc(NC(=O)Nc3ccc(C(F)(F)F)cc3)c2O[C@H]1CN(C)S(=O)(=O)c1cn(C)cn1,9.6
O=C(C[C@@H]1CC[C@@H]2[C@H](COC[C@@H](O)CN2Cc2cccc(Cl)c2)O1)N1CCOCC1,-20.6
COCC(=O)Nc1ccc2c(c1)[C@@H]1C[C@H](CC(=O)NCc3ccncc3)O[C@H](CO)[C@@H]1O2,-10.9
C[C@@H]1CN([C@@H](C)CO)C(=O)Cc2cc(NC(=O)C3CCCCC3)ccc2O[C@@H]1CN(C)Cc1ccccc1,-5.0
C/C=C/c1ccc([C@@H]2[C@@H](CNC(=O)C3CCC3)N(C(=O)NCCC)[C@H]2CO)cc1,-2.6
CCCNC(=O)N1C[C@H]2[C@@H](c3ccccc31)[C@H](CO)N2C(=O)CN1CCOCC1,-8.4
CO[C@H]1CN(C)C(=O)c2cc(NS(C)(=O)=O)ccc2OC[C@H](C)N(C(=O)c2ccc3c(c2)OCO3)C[C@H]1C,-12.7
CCS(=O)(=O)Nc1ccc2c(c1)C(=O)N(C)C[C@@H](OC)[C@H](C)CN(C(=O)NC(C)C)[C@H](C)CO2,10.7
CCC(=O)Nc1ccc2c(c1)C(=O)N(C)C[C@H](OC)[C@@H](C)CN(C(=O)CC1CC1)[C@@H](C)CO2,-17.9
C[C@H]1CN([C@@H](C)CO)C(=O)Cc2cc(NC(=O)CCC(F)(F)F)ccc2O[C@@H]1CN(C)Cc1ccc(C(=O)O)cc1,-8.8
OC[C@H]1[C@@H](c2ccc(-c3cccnc3)cc2)[C@H]2CN(CC3CC3)CCCCN21,-8.9
CC(C)(O)C#Cc1ccc([C@H]2[C@H]3CN(C(=O)c4ccc(F)cc4)CCCCN3[C@H]2CO)cc1,3.4
O=C(NC1CCCC1)N1CCCCN2[C@@H](CO)[C@@H](c3ccc(-c4cccnc4)cc3)[C@@H]2C1,-0.3
Cc1ccc(S(=O)(=O)N(C)C[C@H]2Oc3c(NC(=O)Nc4cccc5ccccc45)cccc3C(=O)N([C@H](C)CO)C[C@@H]2C)cc1,-8.7
COc1ccc(NC(=O)N(C)C[C@H]2OCc3ccccc3-c3ccccc3C(=O)N([C@H](C)CO)C[C@H]2C)cc1,-0.6
CCCNC(=O)Nc1ccc2c(c1)C(=O)N(C)C[C@H](OC)[C@@H](C)CN(C(=O)C1CC1)[C@H](C)CO2,-10.1
CCC(=O)NC[C@@H]1[C@H](c2ccccc2)[C@@H](CO)N1C(=O)C1CC1,2.9
CO[C@@H]1CN(C)C(=O)c2ccc(NC(=O)C3CCCC3)cc2OC[C@H](C)NC[C@H]1C,-10.6
CN(C)C(=O)c1ccc(-c2ccc([C@H]3[C@@H](CO)N4CCCCN(C(=O)C5CC5)C[C@H]34)cc2)cc1,0.9
C[C@H](CO)N1C[C@H](C)[C@H](CN(C)Cc2ccc(C(=O)O)cc2)Oc2ccc(NS(C)(=O)=O)cc2C1=O,-5.8

# 6 entries from above, with the structure last:
UUG fidelity	Structure
-10.1	CCCNC(=O)Nc1ccc2c(c1)C(=O)N(C)C[C@H](OC)[C@@H](C)CN(C(=O)C1CC1)[C@H](C)CO2
-0.6	COc1ccc(NC(=O)N(C)C[C@H]2OCc3ccccc3-c3ccccc3C(=O)N([C@H](C)CO)C[C@H]2C)cc1
-5.0	C[C@@H]1CN([C@@H](C)CO)C(=O)Cc2cc(NC(=O)C3CCCCC3)ccc2O[C@@H]1CN(C)Cc1ccccc1
-10.6	CO[C@@H]1CN(C)C(=O)c2ccc(NC(=O)C3CCCC3)cc2OC[C@H](C)NC[C@H]1C
-8.7	Cc1ccc(S(=O)(=O)N(C)C[C@H]2Oc3c(NC(=O)Nc4cccc5ccccc45)cccc3C(=O)N([C@H](C)CO)C[C@@H]2C)cc1
0.9	CN(C)C(=O)c1ccc(-c2ccc([C@H]3[C@@H](CO)N4CCCCN(C(=O)C5CC5)C[C@H]34)cc2)cc1

# (further entries)
SMILES,UUG fidelity
CN(C)C(=O)c1cccc(-c2ccc3c(c2)[C@H]2[C@H](CCN2C(=O)c2cnccn2)[C@H](CO)N3)c1,-18.0
CO[C@@H]1CN(C)C(=O)c2cc(NC(=O)C3CCCC3)ccc2OC[C@@H](C)N(Cc2nccs2)C[C@H]1C,-4.1
O=C(c1ccncc1)N1CC[C@@H]2[C@H](CO)Nc3ccc(-c4ccccc4)cc3[C@@H]21,-18.8
C[C@H](CO)N1C[C@H](C)[C@H](CN(C)Cc2ccc3c(c2)OCO3)Oc2ccc(NC(=O)Nc3ccc(F)cc3)cc2CC1=O,-3.9
COc1ccccc1C(=O)N1C[C@H]2[C@@H](c3ccccc31)[C@@H](CO)N2C(=O)Cc1ccccc1,21.0
CC(=O)N1[C@H](CO)[C@@H]2c3ccccc3N(S(=O)(=O)c3ccccc3C)C[C@@H]21,-2.8
C/C=C/c1ccc([C@@H]2[C@@H](CO)N(C(C)=O)[C@@H]2CN(C)S(C)(=O)=O)cc1,-10.2
CC(=O)N1[C@H](C(=O)Nc2ccccc2)[C@@H](CO)[C@@H]2Cn3c(ccc(C4=CCCCC4)c3=O)[C@@H]21,22.9
COc1ccc(-c2ccc3c(c2)[C@@H]2[C@@H](CCN2C(=O)C2CCCCC2)[C@@H](CO)N3C)cc1,-1.6
C[C@H](O)C#Cc1ccc([C@H]2[C@@H](CO)N3CCCCN(C(=O)c4ccc(F)cc4)C[C@H]23)cc1,14.4
CN(C)C(=O)c1ccc(-c2ccc([C@@H]3[C@H](CO)N4CCCCN(C(=O)C5CC5)C[C@@H]34)cc2)cc1,-1.5
C[C@H]1CN([C@@H](C)CO)C(=O)CCCn2nncc2CO[C@H]1CN(C)C(=O)Nc1ccc2c(c1)OCCO2,-8.3
CC(C)CC#Cc1ccc([C@@H]2[C@@H](CO)N3CCCCN(C(=O)NC4CCCC4)C[C@@H]23)cc1,5.9
CCCNC(=O)Nc1ccc2c(c1)C(=O)N(C)[C@@H]1CC[C@@H](CC(=O)NCc3ccccc3)O[C@H]1CO2,-7.7
O=C(CC1CC1)Nc1ccc2c(c1)[C@@H]1C[C@H](CC(=O)N3CCOCC3)O[C@@H](CO)[C@@H]1O2,5.4
COc1ccc(CN(C)C[C@@H]2Oc3c(NC(=O)Nc4ccc(C(F)(F)F)cc4)cccc3C(=O)N([C@H](C)CO)C[C@H]2C)cc1,6.5
CO[C@H]1CN(C)C(=O)c2cc(NC(=O)c3cnccn3)ccc2OC[C@@H](C)N(CCc2ccccc2)C[C@@H]1C,-9.0
C[C@@H]1CN([C@@H](C)CO)C(=O)Cc2cc(NC(=O)Nc3ccc(F)cc3)ccc2O[C@H]1CN(C)Cc1ccncc1,-6.0
C[C@@H]1CN([C@H](C)CO)C(=O)c2cccc(NC(=O)c3ccncc3)c2O[C@@H]1CN(C)S(C)(=O)=O,-7.7
COC(=O)N(C)C[C@@H]1OCc2ccccc2-c2ccccc2C(=O)N([C@@H](C)CO)C[C@@H]1C,-1.3
O=C(C1CC1)N1CC[C@H]2[C@H](CO)Nc3ccc(-c4ccc(F)cc4)cc3[C@H]21,-9.2
CCOC(=O)c1c(NC(=O)CN2C(=O)C(=O)N(C(C)C)C2=O)sc(C)c1CC,-22.2
Cc1noc(C)c1NC(=O)N(C)C[C@H]1Oc2c(NC(=O)c3cnccn3)cccc2C(=O)N([C@H](C)CO)C[C@@H]1C,-0.1
C[C@H](O)C#Cc1ccc([C@H]2[C@@H](CO)N3CCCCN(C(=O)c4ccc5c(c4)OCO5)C[C@@H]23)cc1,-2.9
O=C(C[C@H]1CC[C@@H]2[C@H](COC[C@H](O)CN2Cc2cccc(F)c2)O1)NCC1CCCCC1,-1.1
C[C@@H]1CN([C@H](C)CO)C(=O)c2cccc(NC(=O)Nc3ccc(F)cc3)c2O[C@@H]1CN(C)C,17.8

# Arranged by value in UUG fidelity (smallest number first): 3 of the compounds above
SMILES,UUG fidelity
C[C@H](CO)N1C[C@H](C)[C@@H](CN(C)C)Oc2c(NC(=O)Nc3ccc(C(F)(F)F)cc3)cccc2C1=O,-1.3
COc1ccc(-c2ccc([C@@H]3[C@H]4CN(C(=O)c5ccc(F)cc5)CCCCN4[C@H]3CO)cc2)cc1,3.9
COc1ccccc1C(=O)N1C[C@H]2[C@@H](c3ccccc31)[C@@H](CO)N2C(=O)Cc1ccccc1,21.0

# Source: PubChem

# Some of the compounds tested (hit frequency here may not be typical).
